# Screening data as filed in PubChem BioAssay.
# VACV Venus inh = vaccinia inhibition (Venus reporter). Vaccinia virus Venus reporter expression, fluorescence. Potency, µM (top dose mostly 36.5 µM), for the others: at the top dose activity change, negative = inhibition, most hits filed as inhibitors. 0.46% of 330,000 active. AID 720580; active means well fitted inhibition curve with a large enough effect; inconclusive means small, poorly fitted or top-dose-only effect; inactive means no such curve, though single readings can be large or run the other way; tested in A549 cells; also: nearly all actives have a fitted effect of over 30% in size; inactives centre near -10
# VACV mCherry inh = vaccinia inhibition (mCherry reporter); Vaccinia virus mCherry reporter infection, fluorescence; about a quarter of the inactives have no number; Potency, µM (top dose mostly 36.5 µM), for the others: at the top dose activity change, negative = inhibition, hits mostly inhibitors; 0.63% of 310,000 active; AID 720579; active = well fitted inhibition curve with a large enough effect; inconclusive = small, poorly fitted or top-dose-only effect; inactive = no such curve, though single readings can be large or run the other way; tested in A549 cells; also: nearly all actives have a fitted effect of over 35% in size; inactives centre near -10
# * = called active by the depositor; i = inactive; ? = inconclusive; · = no result given; [ ] = another dose, or the depositor's remark. % is scaled to controls: 0 for no effect and ±100 for the full control effect; potency is read from the fitted curve at half-maximal effect.
# Results follow in this order: VACV Venus inh, VACV mCherry inh
1) CCn1c(SCC(=O)NC2=NCCS2)nnc1C(C)NC(=O)c1ccc(Cl)cc1 (configuration not stated)
  -14%, -14%
2) Cc1cc(F)ccc1NC(=S)NCCc1ccccc1
  -22%, -3%
3) O=S1(=O)C[C@@H](N2CCN(c3ccccc3)CC2)[C@H](COCc2ccccc2)N1
  -4%, 5%
4) ON=Cc1ccnc2ccccc12
  -4%, i
5) Cc1ccc(NC(=O)CCC(=O)Nc2ccc(C)cc2)cc1
  -6%, i
6) Cc1ccc(C)c(S(=O)(=O)N2CCN(C(=O)CNC(=O)c3ccc4ccccc4c3)CC2)c1
  -25%, -18%
7) CCN(CC)C(=O)COC(=O)c1cc(-c2ccc(OC)cc2)nc2ccccc12
  -14%, -14%
8) O=C(/C=C/[C@H]1O[C@@H](n2ccc(=O)[nH]c2=O)[C@H](O)[C@@H]1O)NCC1CCCO1 (some centres not stated)
  -5%, 2%
9) C[C@H]1CN([C@@H](C)CO)C(=O)CCCn2cc(nn2)CO[C@@H]1CN(C)S(=O)(=O)c1cccs1
  -6%, i
10) Cc1scc(C(=O)N2CCN(c3ccc(Cl)cc3)CC2)c1C
  -15%, -23%
11) Cn1c(=O)c2c(nc(CN3CCOCC3)n2CCCO)n(C)c1=O
  -12%, -4%
12) COc1ccc(-c2nn(CCC#N)cc2C(=O)Nc2ccc(C(C)=O)cc2)cc1[N+](=O)[O-]
  -4%, -7%
13) Cc1cc(C)n(C(=O)c2ccc([N+](=O)[O-])c(Cl)c2)n1
  -14%, -24%
14) COc1cc2[nH]c(=O)n(CCCCCC(=O)NC3CCCC3)c(=O)c2cc1OC
  -8%, -8%
15) CCn1c(SCC(=O)N2CCC(C)CC2)nc2c([nH]c3ccccc32)c1=O
  ?, ?
16) COc1ccc(NC(=S)N2CCN(C(=O)C3CCCO3)CC2)cc1 (configuration not stated)
  -17%, -1%
17) CCCC(=O)Oc1ccc(C2NC(=O)c3ccccc3O2)cc1 (configuration not stated)
  -4%, -5%
18) O=C(Nc1cccc(Cl)c1)ON1CCCCC1
  -6%, -25%
19) C=CCNC(=S)Nc1ccccc1
  -5%, -13%
20) COc1cc(NC(=O)c2cc(-c3ccc(F)cc3OC(C)C)n[nH]2)cc(OC)c1OC
  ?, -16%
21) Cc1ccn2c(=O)nc(SCC(=O)NCCc3ccccc3)nc2c1
  -3%, -12%
22) COc1ccc(N2CCN(C(=O)NCc3noc4ccccc34)CC2)cc1
  -8%, -2%
23) Cc1ccc2c(c1)N(C(=O)CCC(=O)N1CCCCC1)CCO2
  -5%, 14%
24) OCCN1CCOCCN(CCO)CCOCC1
  -16%, ·
25) O=C(CN1CCCCCC1)Nc1ccc([N+](=O)[O-])cc1Br
  -20%, ?
26) Cc1nc2scc(C)n2c(=O)c1S(=O)(=O)Nc1cccc(C(F)(F)F)c1
  -22%, -25%
27) CCCN1CCN(CCCNC(=O)C2CCCN(c3nc4ccc(OCC)cc4s3)C2)CC1 (configuration not stated)
  0%, i
28) Cc1nn2c(C(F)(F)F)cc(-c3ccc(Cl)cc3)nc2c1C(=O)N1CCOCC1
  8%, ·
29) O=C(NC1CC1)c1cc(-c2ccccn2)nc2ccccc12
  6%, ·
30) CCOC(=O)c1ccc(Nc2cnc3ccccc3n2)cc1
  3%, 1%

# A few values from above.
# Under VACV Venus inh, no. 2 has the entry -22%
# Under VACV mCherry inh, no. 26 has the entry -25%

# Remaining list, next part.
# Results follow in this order: VACV Venus inh, VACV mCherry inh
31) Cc1cccc(C)c1NC(=O)NCCc1c[nH]c2ccccc12
  -11%, -17%
32) CCOC(=O)CN1c2ccccc2NC(=O)CC1C (configuration not stated)
  -3%, 0%
33) O=C1c2cccc(OCC(=O)N3CCCc4ccccc43)c2CCN1Cc1ccc(Br)cc1
  ?, ?
34) COc1ccc(Cc2nnc(Nc3ccc4c(c3)OCCO4)[nH]c2=O)cc1
  -6%, -13%
35) O=C1OCC2=C1C(c1ccc3c(c1)OCO3)Sc1ccccc1N2 (configuration not stated)
  -18%, ?
36) Cc1ccccc1C(=O)NNC(=O)C(=O)N1CCCCC1
  -8%, -9%
37) CS(=O)(=O)N(Cc1ccccc1F)c1ccccc1
  -7%, -2%
38) CCN(CC)c1ccc(C=Nc2ccc(C#N)cc2)c(O)c1
  -23%, ·
39) CCOC(=O)c1cc(NC(=O)c2ccoc2C)cc(C(=O)OCC)c1
  -10%, i
40) CC(C)CC(c1nnnn1Cc1cccs1)N1CCN(c2nc3ccccc3s2)CC1 (configuration not stated)
  -24%, ?
41) O=C(CSc1nc2ccccc2[nH]1)N/N=C/C=C/c1ccccc1[N+](=O)[O-]
  -4%, -7%
42) C=CCn1c(SCc2c(F)c(F)c(F)c(F)c2F)nc(O)cc1=O
  -10%, -8%
43) CCOC(=O)c1cc(-c2ccccc2)sc1NC(=O)C(C)OC(=O)c1cccnc1OCC (configuration not stated)
  -2%, -10%
44) Cc1cccc(C)c1-n1nnnc1C(c1cccs1)N1CCC2(CC1)C(=O)NCN2c1ccccc1 (configuration not stated)
  -4%, -3%
45) O=C(C1CCN(c2nnc(N3CCCC3=O)s2)CC1)N1CCN(Cc2ccc3c(c2)OCO3)CC1
  -19%, ·
46) Cc1ccc(-n2ncc3c(SCC(N)=O)ncnc32)cc1C
  -13%, -7%
47) CN(C(=O)CSc1nc2ccccc2o1)C1CCS(=O)(=O)C1 (configuration not stated)
  -4%, -4%
48) O=C(Cn1c(=O)ccc2cc(S(=O)(=O)N3CCCC3)ccc21)NCc1ccc(Cl)cc1
  -6%, -4%
49) COc1ccccc1NC(=O)CN1CCCN(S(=O)(=O)c2ccc(Br)cc2)CC1
  2%, -3%
50) CC(C)(C)NC(=O)C(c1ccc(C(F)(F)F)cc1)n1c(=O)c(-c2ccccc2)nc2ccccc21 (configuration not stated)
  -14%, -16%
51) Cc1ccc(CNC(=O)CS(=O)(=O)Cc2nc(-c3ccccc3C)oc2C)cc1
  4%, -10%
52) O=C(NCc1cccnc1)c1[nH]c(C(F)(F)F)nc1-c1ccccc1
  -3%, 14%
53) Cc1ccc(-n2cccc2/C=C2/NC(=O)N(CC(=O)Nc3cccc(C)c3)C2=O)cc1
  -27%, -9%
54) CCOC(=O)CSc1nnc(CNC(=O)c2ccco2)n1C
  -2%, -15%
55) CN1CCN(c2ccc(NC(=O)c3ccc(-c4cccc([N+](=O)[O-])c4)o3)cc2)CC1
  -14%, -19%
56) Oc1ccccc1OCC(O)c1ccccc1 (configuration not stated)
  3%, -8%
57) O=C1CN(S(=O)(=O)c2ccccc2)c2ccccc2N1
  -13%, -2%
58) COc1ccccc1/C=C1\S/C(=N/NC(=O)c2cccc(Br)c2)NC1=O
  -12%, -16%
59) CCOC(=O)CN1C(=O)S/C(=C\c2ccc(-c3cccc(C(=O)O)c3C)o2)C1=O
  4%, -9%
60) COCCNC(=O)c1c[nH]c2ccc(S(=O)(=O)N3CCc4ccccc43)cc2c1=O
  5.6µM*, ?

# From compound 43 as far as 60, as listed above:
# Results follow in this order: VACV Venus inh, VACV mCherry inh
43) CCOC(=O)c1cc(-c2ccccc2)sc1NC(=O)C(C)OC(=O)c1cccnc1OCC (configuration not stated)
  -2%, -10%
44) Cc1cccc(C)c1-n1nnnc1C(c1cccs1)N1CCC2(CC1)C(=O)NCN2c1ccccc1 (configuration not stated)
  -4%, -3%
45) O=C(C1CCN(c2nnc(N3CCCC3=O)s2)CC1)N1CCN(Cc2ccc3c(c2)OCO3)CC1
  -19%, ·
46) Cc1ccc(-n2ncc3c(SCC(N)=O)ncnc32)cc1C
  -13%, -7%
47) CN(C(=O)CSc1nc2ccccc2o1)C1CCS(=O)(=O)C1 (configuration not stated)
  -4%, -4%
48) O=C(Cn1c(=O)ccc2cc(S(=O)(=O)N3CCCC3)ccc21)NCc1ccc(Cl)cc1
  -6%, -4%
49) COc1ccccc1NC(=O)CN1CCCN(S(=O)(=O)c2ccc(Br)cc2)CC1
  2%, -3%
50) CC(C)(C)NC(=O)C(c1ccc(C(F)(F)F)cc1)n1c(=O)c(-c2ccccc2)nc2ccccc21 (configuration not stated)
  -14%, -16%
51) Cc1ccc(CNC(=O)CS(=O)(=O)Cc2nc(-c3ccccc3C)oc2C)cc1
  4%, -10%
52) O=C(NCc1cccnc1)c1[nH]c(C(F)(F)F)nc1-c1ccccc1
  -3%, 14%
53) Cc1ccc(-n2cccc2/C=C2/NC(=O)N(CC(=O)Nc3cccc(C)c3)C2=O)cc1
  -27%, -9%
54) CCOC(=O)CSc1nnc(CNC(=O)c2ccco2)n1C
  -2%, -15%
55) CN1CCN(c2ccc(NC(=O)c3ccc(-c4cccc([N+](=O)[O-])c4)o3)cc2)CC1
  -14%, -19%
56) Oc1ccccc1OCC(O)c1ccccc1 (configuration not stated)
  3%, -8%
57) O=C1CN(S(=O)(=O)c2ccccc2)c2ccccc2N1
  -13%, -2%
58) COc1ccccc1/C=C1\S/C(=N/NC(=O)c2cccc(Br)c2)NC1=O
  -12%, -16%
59) CCOC(=O)CN1C(=O)S/C(=C\c2ccc(-c3cccc(C(=O)O)c3C)o2)C1=O
  4%, -9%
60) COCCNC(=O)c1c[nH]c2ccc(S(=O)(=O)N3CCc4ccccc43)cc2c1=O
  5.6µM*, ?

# Carrying on.
# Results follow in this order: VACV Venus inh, VACV mCherry inh
61) CCN1CCCC1CNS(=O)(=O)c1ccc(C(=O)Nc2ccccc2)cc1 (configuration not stated)
  2%, ·
62) Clc1cccc(CNc2ncnc3nc[nH]c23)c1
  -19%, -23%
63) CCOc1ccc(OCc2cccc(C(=O)N/N=C/c3cccnc3)c2)cc1
  -8%, -16%
64) COc1ccc(C2CC(=O)Nc3ccccc3S2(=O)=O)cc1OC (configuration not stated)
  -19%, ·
65) O=C1CC(N2CCN(S(=O)(=O)c3cccc(C(F)(F)F)c3)CC2)C(=O)N1Cc1ccccc1 (configuration not stated)
  -2%, -14%
66) CC(C)N1CCCC(C)(C(=O)Nc2nccc3ccccc23)C1 (configuration not stated)
  13%, 9%
67) CC1(C)CC(=O)C2=C(C1)NC1=C(C(=O)c3ccccc31)C2c1ccc(Cl)cc1 (configuration not stated)
  ?, ?
68) Cc1nc(NC(=O)/C=C/c2ccccc2)n[nH]1
  -4%, -1%
69) Cc1ccc2nc(N/C(=N/S(=O)(=O)c3cccs3)c3ccccc3Cl)sc2c1
  -4%, -3%
70) O=C(CC1C(=O)OCCN1Cc1ccccc1)Nc1cccc(C(F)(F)F)c1 (configuration not stated)
  -15%, -25%
71) CCOc1ccc(C(C)C)cc1S(=O)(=O)N1CCOCC1
  6%, i
72) O=C(COC(=O)c1ccc(O)cc1)Nc1ccccc1[N+](=O)[O-]
  -16%, -12%
73) Cc1ccc(CCCOC(=O)C[N+]2(C)CCOCC2)cc1
  -14%, -17%
74) CC(C)Cn1cnc2c1c(=O)n(CC(=O)N(C)C)c(=O)n2Cc1ccccc1
  -10%, -6%
75) CCc1nc(C)ccc1OCC(=O)O
  -8%, ·
76) O=S(=O)(c1ccc2ccccc2c1)N1CCCCCC1
  2%, 4%
77) COC(=O)c1onc(-c2c(OC)cc(OC)cc2OC)c1C(=O)OC
  -3%, -11%
78) COc1cccc(NC(=O)CSc2nc(-c3ccccc3)nc3c2Cc2cc(Cl)ccc2O3)c1
  -8%, -8%
79) S=C(c1ccc(-c2ccc(Cl)cc2Cl)o1)N1CCCCC1
  -20%, -24%
80) O=C1c2ccccc2C(=O)N1CCc1csc(NNc2nc(CCN3C(=O)c4ccccc4C3=O)cs2)n1
  2%, -12%
81) CC(=O)Nc1ccnn1C1CCN(C(=O)c2cccc(C)c2C)CC1
  8%[7.34 µM], 10%[7.34 µM]
82) COc1ccc(-c2c[n+](CC(=O)c3cccs3)c3n2CCC3)cc1
  -23%, -3%
83) NC(=O)COC(=O)c1ccccc1SCC(=O)NC1CCCCCC1
  -9%, -1%
84) CC(CCc1ccccc1)NCC(O)c1cccc([N+](=O)[O-])c1 (configuration not stated)
  -4%, -14%
85) CCOC(=O)C1(Cc2cccc(OC)c2)CCN(Cc2ccc3c(c2)OCCO3)CC1
  -16%, -7%
86) Cc1ccc(NC(=S)Nc2ccc(S(=O)(=O)N3CCOCC3)cc2)cc1S(=O)(=O)N1CCOCC1
  -4%, 0%
87) O=C(Cn1ncc2c3ccccc3n(Cc3ccc(F)cc3)c2c1=O)NCc1cccs1
  -12%, -3%
88) COC(=O)C1=C(C)N(CCCC(=O)O)C(=O)NC1c1ccc(-c2ccccc2)cc1 (configuration not stated)
  5%, -8%
89) O=C(Nc1ccccc1C(=O)N1CCCC1)c1ccc(Cl)c([N+](=O)[O-])c1
  5%, -12%
90) Cc1cc2c(=O)[nH]cnc2s1
  -9%, -14%[1.46 µM]
91) CCOC(=O)[C@@H]1[C@H]2COc3cc(OC)ccc3[C@@H]2N2C(=O)N(c3cccc(C)c3)C(=O)[C@]12C
  -5%, -11%
92) CCOC(=O)c1c(NC(=O)CSc2c[nH]c3ccccc23)sc2c1CCCC2
  -25%, ?
